Screens as filed in PubChem.
T cell HTS = T cell immune modulators affecting CD8 T cell-vesicle binding; 2C CD8+ T cell-vesicle binding, flow cytometry; stronger effect = lower value; calls only at 7 µM; 330,000 tested, 0.068% active; AID 2052;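 active = response, share of CD8 T cells binding vesicles, and their 90th percentile fluorescence all below set limits, cut at about 80% in these data, passing the limit was not always enough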
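Material: murine 2C transgenic CD8+ T lymphocytes / Also added: QL9-peptide-loaded Drosophila micro-vesicles bearing Ld, ICAM-1 and B7-1 / Schedule: binding step 1.5 h, 37 °C, antibody labelling 20 min, ice / Signal: flow cytometry, PE anti-B7-1 (FL2) versus Alexa647 anti-CD8 (FL8), PFA-fixed / Evaluation: percent CD8+ FL2 mean versus row control / Benchmarks: naked versus QL9-loaded vesicles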
CSM14.1 death rescue = protection against thapsigargin-triggered cell killing – 384-well, CSM14.1, ATP luminescence, primary screen (AID 1222). one-dose cellular ATP content (survival), % at 20 µM; EC50 in µM for titrated hits. CSM14.1 thapsigargin-induced death rescue, ATP luminescence; higher % means a stronger effect. 190,000 tested, under 10 active;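 active = EC50 below 50 µM in the dose-response confirmation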;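 also: death triggered by thapsigargin at about 15 µM added after 2 h compound pretreatment; cell ATP read after overnight thapsigargin exposure of roughly 18 to 22 hours; normalized against plate controls of thapsigargin alone and 5% DMSO vehicle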
MT stabilize HCS = microtubule stabilization, imaging screen; HeLa tubulin immunostaining HCS, 24 h; share of cells brighter than vehicle mean+2SD; % tubulin-high responders, % at 10 µM; 200,000 tested, 0.83% active;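 active = plate Z-score above 3 for both tubulin-high and condensed-nucleus cell shares, with cell loss under 80%, at 10 µM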;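 also: anti alpha tubulin signal scored within the nucleus-defined area of each cell; some results filed as inactive read as strong as hits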
Lipid droplet = hepatic lipid droplet formation modulation; AML12 mouse hepatocytes, oleate lipid droplets, BODIPY imaging; inhibition, % at 6.5 µM; 240,000 tested, 0.4% active;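 active = lipid droplet intensity inhibited by at least 50%, with more than 500 cells counted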
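Assay system: AML12 hepatocytes (mouse) / Also added: 100 µM oleic acid challenge / Times: overnight treatment with compound plus oleate / Detection: high-content imaging of BODIPY-stained droplets and DAPI nuclei / Evaluation: % inhibition of lipid droplet signal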
Autophagy HCS = alters autophagy in cells; MEF GFP-LC3 puncta imaging; test concentration mostly 10 µM; calls only at 10 µM (by protocol); 190,000 tested, 0.98% active; AID 463193;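 active = percentage of spot-positive cells more than 3 SD above its plate mean, without a fluorescence outlier flag or 80% toxicity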;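 also: spot-positive cell cutoff set from DMSO-treated cells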
Insulin prom up = MIN6 insulin promoter up-regulation; MIN6 insulin promoter-GFP reporter, high-content imaging; stronger effect = higher value; 190,000 tested, 0.3% active; z-score at 5 µM; AID 1625;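 active = z-score above 3 at 5 µM with at least 500 cells counted in the well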
Salmonella PhoP GFP = PhoP-dependent GFP reporter repression – Salmonella Typhimurium, primary screen (AID 1863) | inhibition, % at 50 µM, or IC50 in µM where a hit was titrated | S. Typhimurium PhoP-regulated promoter GFP reporter, 4 h; higher % means a stronger effect | 300,000 tested, 0.16% active;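 active = inhibition over 29.93%, a cutoff 3 SD above the screen mean, later confirmed by dose response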;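 also: 0% = low Mg2+ inducing control and 100% = high Mg2+ repressing control; strong numbers were not always called active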
Dynein transport = dynein cargo transport inhibition | 3617.4 mouse cells, GR-EGFP nuclear translocation imaging; test concentration mostly 20 µM; stimulated with dexamethasone, 1 µM; stronger effect = lower value | z-score, hits read low | 220,000 tested, 0.47% active | AID 1381;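 active = plate z-score of nuclear minus cytoplasmic receptor signal below a set negative limit, without overly bright fluorescence or cell loss, cut at about -3.5 in these data, passing the limit was not always enough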;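 also: z-score of nuclear minus cytoplasmic ring GR-EGFP intensity difference per well; some compounds called inactive have numbers as strong as hits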
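Buffer or medium: Induction medium lacking tetracycline, stripped serum | Also added: Dexamethasone agonist, 1.0 µM final, for 30 min | Timing: 48 h induction, 1 h compound, 30 min dex at 37 °C | Detection: Formaldehyde fixation, Hoechst nuclear stain, 10x automated fluorescence imaging | Measure: Nuclear versus cytoplasmic GR-EGFP signal, averaged per well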
Dynein transport cytoplasmic EGFP = further read-out of Dynein transport, marked with its call; z-score; measured here: cytoplasmic GR-EGFP intensity; stronger effect = higher value
Dynein transport nuclear GR-EGFP = second read-out of Dynein transport, no call of its own (marks repeat the call); z-score; measured here: nuclear GR-EGFP intensity;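 lower value marks the stronger effect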
Dynein transport cell count = second read-out of Dynein transport, no call of its own (marks repeat the call); z-score; measured here: cell count per field
Insulin prom up cell count = also measured in Insulin prom up; calls as there; cell count; measured here: cytotoxicity, nuclei count;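 total cells summed across four imaged fields per well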
Lipid droplet cells 6.5 µM = also measured in Lipid droplet; calls as there; cell count; measured here: cell count, cytotoxicity flag;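 cells counted across two imaged fields per well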
T cell HTS vesicle-bound % = second read-out of T cell HTS, no call of its own (marks repeat the call); double positive events, %; measured here: CD8+ vesicle-bound cell fraction;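 binding gate set so that unloaded-vesicle control wells show 10% double positive cells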
MT stabilize HCS Hoechst-high % = also measured in MT stabilize HCS; calls as there; % Hoechst-high responders; measured here: nuclear condensation Hoechst responders;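 share of cells brighter than vehicle mean plus two SD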
MT stabilize HCS cytotoxicity % = second read-out of MT stabilize HCS, no call of its own (marks repeat the call); toxicity, %; measured here: cytotoxicity by cell density;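 0% = mean cell density of plate MIN control wells and 100% = no cells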
Autophagy HCS cell loss 18 h = recorded beside Autophagy HCS, whose call it bears; toxicity, %; measured here: cell loss, nuclei count;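 cell loss after 18 h compound exposure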
* marks the source's active call; other numbers are inactive results; i = inactive; · = not tested or not shown; + = active, no number.

SMILES | T cell HTS | T cell HTS vesicle-bound % | CSM14.1 death rescue | MT stabilize HCS | MT stabilize HCS Hoechst-high % | MT stabilize HCS cytotoxicity % | Lipid droplet | Autophagy HCS | Autophagy HCS cell loss 18 h | Insulin prom up | Insulin prom up cell count | Salmonella PhoP GFP | Dynein transport | Dynein transport cytoplasmic EGFP | Dynein transport nuclear GR-EGFP | Dynein transport cell count | others
O=C(c1c(F)cccc1F)N1CCN(c2ccccc2F)CC1 | i | 45 | 1.2% | 2.5 | 2.4 | 9.7 | · | i | 7 | 1.2 | 1425 | -1% | -1.9 | -0.19 | -0.58 | -0.025
CCCNC(=O)N1CCC(C(=O)c2ccc(F)cc2)CC1 | i | 47 | -0.8% | 2.9 | 1.7 | 0.9 | · | i | -5 | -0.44 | 1346 | -3% | -0.75 | -0.27 | -1 | 1.1
Cc1cccc(NC(=S)NC2CC3CCC(C2)N3Cc2ccco2)c1C (centres undefined) | i | 69 | -0.5% | 2.9 | 1.4 | 4.9 | · | i | 0 | -0.66 | 1560 | 5% | 0.44 | -0.2 | 0.79 | -0.91
O=C(CSc1nnc(-c2cccnc2)o1)Oc1ccccc1 | i | 18 | 1.8% | 2.2 | 1.6 | 7.1 | · | i | 3 | 0.28 | 1649 | -3% | -0.55 | -0.22 | -0.39 | 0.93
Cc1ccc(F)cc1NC(=O)C12CC3CC(C1)CC(n1cnc([N+](=O)[O-])n1)(C3)C2 | i | 19 | -1.3% | 2.7 | 1.9 | 7.6 | · | i | 7 | -0.06 | 1738 | -1% | -0.1 | -0.23 | 0.56 | 0.96
O=C(NCc1ccccc1)c1sc(=S)n2c1[nH]c(=O)c1ccccc12 | i | 22 | -1.6% | 3.1 | 2.2 | 5.6 | · | i | -2 | -0.11 | 1518 | -1% | -1.5 | -0.19 | -0.59 | 0.57
O=C1NC(c2ccc(Br)cc2)Nc2sc3c(c21)CCC3 (centres undefined) | i | 41 | -1.8% | 1.7 | 1.5 | 1.9 | · | i | 4 | -0.17 | 1612 | 3% | -0.073 | -0.09 | -0.64 | 0.41
COC(=O)C1=CO[C@@H](C)[C@H]2CN3CCc4c([nH]c5ccccc45)[C@@H]3C[C@H]12 | i | 50 | · | · | · | · | · | · | · | · | · | 6% | · | · | · | ·
Cc1ccc(S(=O)(=O)NCC(=O)OC(C)C(=O)Nc2ncc(Cl)cc2Cl)cc1 (centres undefined) | i | 11 | 1.1% | 3.4 | 1.2 | 4.7 | · | i | 6 | 0.17 | 1346 | -1% | 0.75 | -0.15 | 1.4 | -0.67
Cc1cc(C(=O)N/N=C/C=C/c2ccc3c(c2)OCO3)n[nH]1 | i | 44 | -0.9% | 2.2 | 1.3 | 0.1 | · | i | 6 | -0.49 | 1562 | 23% | 3 | -0.081 | 1.1 | -1.9
O=C(N/N=C/c1c(Cl)cccc1Cl)c1cccc(F)c1 | i | 8 | 0.4% | 2.3 | 1.0 | 4.9 | · | i | -2 | -0.94 | 1698 | 19% | -0.63 | -0.22 | -0.71 | 1.2
CN(C)S(=O)(=O)Oc1ccc(Cl)cc1C(=O)Nc1cccc(C(F)(F)F)c1 | i | 21 | 1.7% | 1.3 | 1.1 | 9.0 | · | i | -4 | -0.62 | 1539 | 4% | -0.067 | -0.22 | -0.21 | 0.36
O=c1oc(-c2cccs2)nc2ccc(Br)cc12 | i | 23 | -1.6% | 1.7 | 1.5 | 8.0 | · | i | 1 | 0.15 | 1610 | 7% | -2.3 | -0.02 | -1.7 | 0.69
COc1ccccc1OC(C)C(=O)O (centres undefined) | i | 15 | -1.7% | 5.3 | 3.3 | 5.4 | · | i | 5 | 0.5 | 1566 | -14% | 0.9 | -0.28 | 0.49 | -0.28
CCOC(=O)c1cc2c(=O)n3ccccc3nc2n(Cc2ccco2)c1=NC(=O)c1cccnc1 | i | 15 | -1.3% | 7.2 | 2.4 | 2.5 | · | i | 3 | 0.02 | 1098 | 12% | 0.73 | 0.033 | 0.52 | -0.42
Cc1nnc(NC(=O)c2sc3nc(-c4cccs4)cc(C(F)(F)F)c3c2N)s1 | i | 59 | -1.3% | 4.7 | 1.9 | 3.0 | · | + | -20* | · | · | -9% | -6.1 | 19 | 0.79 | 0.014
CCN(c1ccc(NC(=O)COC(=O)c2ccc(S(=O)(=O)N3CCCC3)cc2)cc1)C(C)C | i | 34 | -3.8% | 1.7 | 1.6 | 7.0 | -11 | i | -1 | 0.52 | 850 | -1% | -1.1 | 0.4 | 0.19 | 0.3 | Lipid droplet cells 6.5 µM=732
O=C(CSc1nnc(-c2ccccc2)n1-c1ccccc1)c1cccs1 | i | 22 | 2.1% | 1.1 | 1.9 | 5.7 | · | i | 6 | 0.01 | 1407 | 10% | -0.72 | -0.24 | -0.45 | 1.1
O=C(NC1CCCCC1)NC1CC2CCCC(C1)N2C1CCCC1 (centres undefined) | i | 54 | -0.4% | 3.4 | 2.1 | 3.9 | · | i | 2 | -0.37 | 1622 | -6% | 0.66 | -0.14 | 0.098 | -1.3
COc1ccc(NC(=O)c2ccccc2NC(=O)CSc2ccc(C)cc2)cc1 | i | 14 | 4.0% | 2.3 | 2.2 | 7.3 | · | i | 29 | -0.7 | 1515 | 10% | 1.4 | -0.21 | 1.1 | -0.35
Cc1cccc(/C=N/n2c(C)nnc2C)c1 | i | 38 | 1.8% | 2.2 | 1.4 | 0.2 | · | i | 0 | -0.81 | 1210 | -4% | -0.29 | -0.2 | -0.86 | -0.7
CSc1nc(N2CCOCC2)c2c3c(sc2n1)CCC3 | i | 28 | -2.4% | 2.7 | 1.7 | 3.9 | -1 | i | 2 | -0.48 | 1290 | -4% | -0.43 | -0.26 | -0.86 | -0.08 | Lipid droplet cells 6.5 µM=732
CCC(C(=O)NC(C)(C)C)N(C(=O)Cn1nnc(-c2ccccc2F)n1)c1cccc2c1CCCC2 (centres undefined) | i | 20 | -2.7% | 1.1 | 1.7 | 14 | · | i | -7 | -0.98 | 1599 | 4% | -0.67 | -0.17 | -0.43 | 0.82
COc1cccc2[nH]c3c(N4CC(C)CC(C)C4)ncnc3c12 (centres undefined) | · | · | 2.1% | 1.8 | 1.8 | 6.9 | · | i | -1 | -1.4 | 1506 | -7% | 0.056 | -0.19 | -0.79 | 0.064
O=C(Cc1ccccc1)NC(Nc1cccc2ccccc12)C(Cl)(Cl)Cl (centres undefined) | i | 58 | -1.2% | 2.7 | 1.9 | 7.4 | · | i | -19 | 0.24 | 1541 | 3% | -0.15 | -0.21 | 0.46 | 0.91
Cc1sc(NC(=S)NC(=O)C(C)(C)C)c(C(N)=O)c1C | i | 6 | 2.7% | 2.5 | 2.3 | 1.3 | · | i | -9 | 0.26 | 1486 | -6% | 1.2 | -0.14 | 1.3 | 0.26
CCCC(C)c1nnc(NC(=O)c2cc(C(=O)OC)cc([N+](=O)[O-])c2)s1 (centres undefined) | i | 47 | 2.1% | 1.2 | 1.6 | 1.8 | · | i | -1 | -0.42 | 1559 | -8% | -0.57 | 0.43 | -0.33 | 0.55
CCCS(=O)(=O)N1CCC(C(=O)N2CCN(Cc3ccccc3)CC2)CC1 | i | 21 | -2.7% | 1.9 | 2.2 | 9.0 | · | i | -3 | -0.28 | 1484 | 0% | -0.81 | 0.85 | -0.33 | 0.47
COc1cccc(C2c3c(-c4ccccc4)n[nH]c3C(=O)N2c2ccc(C(=O)O)cc2)c1 (centres undefined) | i | 6 | 0.5% | 2.2 | 1.7 | 8.6 | · | i | 6 | -0.21 | 1711 | 3% | -0.35 | -0.19 | 0.28 | 1.5
CCOC(=O)c1[nH]c2ccc(OC)cc2c1NC(=O)NC(C)C | i | 29 | -1.6% | 2.9 | 2.2 | 6.4 | · | i | 2 | 0.17 | 1478 | 1% | -0.74 | -0.16 | -0.13 | -0.34
COc1ccc(S(=O)(=O)N2Cc3ccccc3CC2C(=O)Nc2nccs2)cc1 (centres undefined) | i | 27 | -1.0% | 3.0 | 2.0 | 5.1 | · | i | 6 | -0.29 | 1535 | 1% | 0.98 | -0.23 | -0.59 | -0.32
COc1ccc(Cl)cc1C(=O)NNC(=S)NC(=O)c1cc(-c2ccc(Cl)cc2)nc2ccccc12 | i | 44 | 1.3% | 1.5 | 1.0 | 7.8 | · | i | 17 | 0.45 | 1415 | -8% | -0.89 | -0.2 | 0.15 | 0.75
c1coc(CNc2ncnc3nc[nH]c23)c1 | i | 23 | · | 1.5 | 2.7 | 6.2 | -22 | i | -9 | -0.78 | 1328 | -1% | -0.33 | -0.13 | 0.061 | 0.93 | Lipid droplet cells 6.5 µM=663
CCOC(=O)Cc1csc(NC(=O)c2c(-c3c(Cl)cccc3Cl)noc2C)n1 | i | 62 | -0.5% | 2.5 | 1.5 | 0.4 | · | i | -9 | -0.79 | 1559 | 5% | 0.33 | -0.13 | 0.37 | -1.1

Only part of the results is shown. The share of hits here may be higher or lower than overall.
